# Compound activity (PubChem)
# Rango complex inh – inhibitors of Rango-importin beta complex formation; Rango CFP/YFP FRET sensor + importin beta, 45 min; Q14974; AID 540263; actives 0.031% (n = 340,000); Potency, µM (doses to about 92.2 µM), inactives show at the highest dose inhibition of complex formation; active = rising FRET ratio curve, often small or poorly fitted; inconclusive = mostly compound fluorescence or quenching in the first reads; inactive = flat curves in all reads;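 note: potency is the fitted concentration of half-maximal effect; 0% = DMSO wells and 100% = buffer wells lacking importin beta; nearly all actives have a fitted effect of over 15% in size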
#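 FRET biosensor Rango (snurportin 1 IBB between N-terminal EYFP and C-terminal Cerulean), 50 nM in PBS/1 mM DTT/0.02% Tween-20/0.1% BSA, preincubated 5 min RT with compound; 0.125 microM importin beta added, 45 min RT, CFP/YFP FRET ratio read.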
# miR-21 reporter – raises the signal of a miR-21 reporter; Potency, µM (doses to about 38.3 µM), for inactives: top-dose reporter change, positive = more light; HeLa miR-21 FLuc reporter, luciferase, 48 h; 340,000 tested, under 10 active; active = well fitted rising curve with a large enough effect; inconclusive = small, poorly fitted or top-dose-only effect; inactive = no such curve, though single readings can be large or run the other way;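 note: % of control where 0% means no effect; miR-21 action dims this reporter so a rising signal means less miR-21 action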
#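 HeLa cells stably expressing CMV-driven firefly luciferase with a downstream miR-21 binding sequence, endogenously expressing miR-21, were treated with titrations (up to about 40uM final) for 48 hours at 37 degree Celsius. Luciferase luminescence was read after lysis.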
# GLA inh pH 4.5 – inhibitors of human alpha-galactosidase A at pH 4.5; P06280; purified enzyme, 4-MU-alpha-Gal fluorescence, pH 4.5; activity change, negative = inhibition, % at 105 µM; 230,000 tested, under 10 active; AID 1467; inconclusive = small, poorly fitted or top-dose-only inhibition, or a rising curve; inactive = flat fitted curve, though single readings scatter; no compound was filed as active;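 note: 0% = full activity with enzyme and -100% = basal without enzyme; dose as in the result columns while the protocol names 77 µM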
# Target sequence (P06280 whole entry, looked up): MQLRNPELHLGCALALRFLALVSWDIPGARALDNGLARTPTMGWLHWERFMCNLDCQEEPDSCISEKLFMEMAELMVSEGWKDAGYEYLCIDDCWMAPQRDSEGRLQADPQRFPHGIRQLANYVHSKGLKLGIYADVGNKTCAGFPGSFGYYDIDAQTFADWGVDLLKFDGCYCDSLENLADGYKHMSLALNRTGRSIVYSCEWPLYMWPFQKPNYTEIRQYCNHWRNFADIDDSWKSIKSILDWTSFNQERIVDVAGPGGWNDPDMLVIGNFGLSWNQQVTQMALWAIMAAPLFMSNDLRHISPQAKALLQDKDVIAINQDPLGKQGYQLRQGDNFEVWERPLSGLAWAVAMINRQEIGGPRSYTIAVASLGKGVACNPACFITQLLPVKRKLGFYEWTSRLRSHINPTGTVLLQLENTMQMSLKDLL
# Rango dissoc inh – inhibition of RanGTP-driven Rango-importin beta dissociation. Potency, µM (highest dose often 46.1 µM), inactives show at the highest dose activity change, negative = inhibition. actives 0.071% (n = 340,000). Biochemical FRET Rango-importin beta, RanGTP-induced dissociation; active means falling FRET ratio curve, often poorly fitted, with flat reads before Ran was added; inconclusive means other falling curves, or compound fluorescence or quenching; inactive means flat or rising ratio curve;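 note: potency is the fitted concentration of half-maximal effect; % of control where 0% means no effect; nearly all actives have a fitted effect of over 45% in size; -100% = wells without RanGTP and RCC1; the record marks most hits as doubtful in a second field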
#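 Recombinant Rango FRET biosensor (EYFP–snurportin 1 IBB–cerulean CFP10) at 0.1 uM premixed with 0.25 uM importin beta in PBS, 1 mM DTT, 0.02% Tween-20, 0.1% BSA. Compound added 5 min; RanGTP-RCC1 (0.6 uM Ran, 2 mM GTP, 0.2 uM RCC1) then triggers release, read at 45 min.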
# * hit, by the source's call; ? = inconclusive; / = not tested or not shown; & = joins results of further samples; [ ] = dose if it differs, or a comment. A portion of the library; count on the stated rates, not on these rows.
item	SMILES	Rango complex inh	miR-21 reporter	GLA inh pH 4.5	Rango dissoc inh
1	COC(=O)C1=C(C(=O)OC)[C@@H]2Nc3ccccc3[C@@]23C[C@@H](C(=O)OC)N(C(=O)NC2CCCCC2)C3=N1	-1.2%	/	/	32.4%
2	COc1ccc(C(=O)CCC(=O)N2CCN(c3ccc(N4CCOCC4)nn3)CC2)cc1	-2.0%	-0.9%	-5.1	-10.2%
3	CCCCOc1ccccc1C1C(C(=O)OC)=CN(CC)C=C1C(=O)OC	?	-1.7%	?	?
4	O=C(Nc1cccc(C(=O)N2CCCCC2)c1)c1ccccc1Br	-0.3%	-2.9%	/	2.0%
5	CC(C)(Oc1ccc(CCNC(=O)c2ccc(-c3ccc(Cl)cc3)o2)cc1)C(=O)O	0.8%	-11.7%	-6.7	9.3%
6	O=C(Nc1nnc(-c2ccc3c(c2)OCCO3)o1)C1CCCCC1	-3.6%	-31.2%	7.0	12.6%
7	COC(=O)N1CCN(CCc2ccccc2)CC1	-1.1%	3.0%	-5.1	-2.3%
8	Cc1cccn2c(=O)c3cc(C#N)c(=O)n(CC4CCCO4)c3nc12 (stereo not given)	/	-0.9%	?	/
9	Cc1cccc(C(=O)Nc2ccnc(-c3ccncc3)n2)c1	0.3%	4.0%	-0.9	-1.4%
10	COc1ccc(NC(=O)Nc2ccc3c(c2)CC(=O)N([C@H](C)CO)C[C@@H](C)[C@H](CN(C)C(=O)Nc2ccccc2)O3)cc1	0.0%	/	/	5.8%
11	Cc1ccc(CCNC(=O)C2CCN(S(=O)(=O)N3CCCCC3)CC2)cc1	4.3%	0.7%	/	0.9%
12	COc1ccc([C@@H]2[C@@H]3C(=O)N(C(C)(C)C)C(=O)[C@@H]3[C@]3(Cc4ccccc4)C(=O)N(c4cccc(F)c4)C(=O)N23)cc1	-2.8%	/	/	-20.3%
13	C=CCNc1nc(Cl)nc(Nc2ccc(OCC)cc2)n1	3.1%	-6.5%	5.2	-1.8%
14	C#CCOc1ccc(C2C3=C(CC(C)(C)CC3=O)N(CC(=O)O)C3=C2C(=O)CC(C)(C)C3)cc1	?	-5.1%	/	?
15	CSCc1c(C(=O)Nc2ccc(N3CCOCC3)cc2)oc2ccccc12	0.6%	-2.0%	-1.3	-6.8%
16	Cc1nn(Cc2ccccc2)c(C)c1NC(=O)CSc1nc2c(c(C(F)(F)F)n1)CCc1ccccc1-2	-1.0%	-8.6%	-15.3	10.5%
17	CCOC(=O)CSc1nc(-c2ccccc2)nc2ccc(C)cc12	-0.6%	-1.1%	2.6	-3.7%
18	O=C1NC2(CCCCCC2)Oc2ccccc21	0.4%	-6.8%	5.5	0.1%
19	CCN(CC)C(=O)CSc1nnc(-c2ccccn2)n1-c1ccccc1OC	4.8%	2.1%	3.3	-8.3%
20	COC(=O)CCC(=O)N1CCCC(N2CCN(c3cccc(C(F)(F)F)c3)CC2)C1 (stereo not given)	-0.6%	2.8%	/	?
21	O=C(Nc1ccnn1C1CCN(C2CCC2)CC1)c1ccccc1	0.5%	1.2%	/	1.8%
22	CCNC(=S)NS(=O)(=O)c1ccc(Cl)cc1	0.7%	1.0%	3.6	2.8%
23	COc1ccc(NC(=S)NCCc2ccc(Cl)cc2)c(OC)c1	1.1%	-1.1%	-6.0	5.7%
24	COCCCNC(=O)c1ccc(Cn2c(=O)c3ccccc3n(Cc3cc(C)ccc3C)c2=O)cc1	2.0%	-3.7%	-2.7	4.0%
25	O=C(COC(=O)c1ccco1)c1ccc(S(=O)(=O)N2CCCCC2)cc1	2.9%	-3.2%	/	0.5%
26	CCCCn1c(NC(=O)c2ccco2)c(S(=O)(=O)c2ccc(C)cc2)c2nc3ccccc3nc21	?	1.8%	4.3	?
27	O=C1NN=C(c2ccc(Cl)cc2)CC1c1c[nH]c2ccccc12 (stereo not given)	-0.3%	-2.2%	-6.6	-14.5%
28	O=C(CCN1C(=O)/C(=C/c2ccc3c(c2)OCO3)SC1=S)Nc1ccc(C(=O)O)cc1	3.4%	0.1%	/	-2.5%
29	Cc1ccc(CNS(=O)(=O)c2c(C(=O)N3CCCCCC3)c(C)n(C)c2C)cc1	-2.6%	0.1%	/	2.1%
30	COc1ccc(N(Cc2nnc3n2CCCCC3)C(=O)Nc2ccccc2)cc1	3.4%	1.3%	-1.9[21.1 µM]	23.5%

# Two entries drawn at random from the list so far, as already listed:
item	SMILES	Rango complex inh	miR-21 reporter	GLA inh pH 4.5	Rango dissoc inh
26	CCCCn1c(NC(=O)c2ccco2)c(S(=O)(=O)c2ccc(C)cc2)c2nc3ccccc3nc21	?	1.8%	4.3	?
27	O=C1NN=C(c2ccc(Cl)cc2)CC1c1c[nH]c2ccccc12 (stereo not given)	-0.3%	-2.2%	-6.6	-14.5%

# Next compounds
item	SMILES	Rango complex inh	miR-21 reporter	GLA inh pH 4.5	Rango dissoc inh
31	COc1ccc(NC(=O)CCC(=O)N(Cc2ccc(OC)c(OC)c2)c2nccs2)cc1	0.5%	-8.1%	6.4	2.6%
32	Cn1c(=O)[nH]c(=O)c2c1nc(N1CCCCC1)n2CC(O)COc1ccccc1 (stereo not given)	5.4%	1.3%	/	0.0%
33	C=CC(=O)NC(C)(C)Cc1ccccc1	-3.5%	-2.0%	7.8	-8.3%
34	CC1CCCN(c2nc3c(c(=O)n(C)c(=O)n3C)n2Cc2ccccc2)C1 (stereo not given)	0.2%	12.8%	0.3	-5.8%
35	CCCn1c(C(C)NC(=O)c2ccccc2)n[nH]c1=S (stereo not given)	2.1%	0.9%	5.0	22.2%
36	CCc1ccc(OCC(=O)N/N=C(\C)c2ccc(-n3ccnc3)cc2)cc1	-2.5%	-30.7%	-20.4	-7.3%
37	Cc1ccc(NC(=O)COC(=O)CCc2c[nH]c3ccccc23)cc1[N+](=O)[O-]	-1.1%	-1.4%	-2.6	-2.3%
38	CCOc1ncccc1C(=O)NCc1ccccc1F	-1.6%	-11.2%	6.9	-5.1%
39	O=C(NCCCN1CCOCC1)c1ccc(S(=O)(=O)N2CCOCC2)cc1	4.4%	-6.6%	8.0	-1.6%
40	CCN1CCN(c2ccc(S(=O)(=O)N3CCCCC3)cc2NC(=O)CC(NC(C)=O)c2ccccc2)CC1 (stereo not given)	2.5%	/	/	-13.1%
41	CCC(=O)Nc1ccc(C(=O)CSc2nnc(CNc3ccc(Cl)cc3)o2)cc1OC	0.0%	22.8%	3.5	-8.2%
42	COc1ccc(CNC(=O)c2ccc(Cn3cc(Cl)cn3)o2)cc1	0.0%	-1.7%	/	-8.1%
43	Cc1coc2cc3oc(=O)c(CCC(=O)NCCN4CCOCC4)c(C)c3cc12	0.4%	-11.5%	/	-11.4%
44	O=C(COc1ccc(Cl)cc1)N1CCN(Cc2ccc3c(c2)OCO3)CC1	?	7.9%	-1.1&5.2	-4.5%&-15.4%
45	C/C(=N/NC(=O)c1ccc(Cl)s1)c1cccnc1	-3.5%	4.4%	/	-6.8%
46	O=C(COc1ncnc2c(Cl)cc(Cl)cc12)N1CCCCC1	0.6%	-1.1%	5.1	-2.0%
47	Cc1cc(S(=O)(=O)N2CCOCC2)ccc1OCC(=O)Nc1ccc(F)cc1F	0.3%	0.2%	/	5.4%
48	CCCCC(NC(=O)Cc1c(C)c2cc3c4c(oc3c(C)c2oc1=O)CCCC4)C(=O)O (stereo not given)	5.2%	2.3%	/	-8.9%
49	CCCOc1ccc(Cl)cc1Nc1nc(NCCO)nc(N2CCCC2)n1	-1.5%	/	/	1.1%
50	O=C(CNC(=O)c1ccc(Cl)cc1)Nc1ccccc1C(F)(F)F	-2.8%	-5.9%	1.8	-5.2%
51	COc1ccc(NC(=S)N(CCO)Cc2ccccc2)cc1	/	-28.8%	-16.3	/
52	N#C/C(=C(/O)c1ccc2c(c1)OCO2)c1nc2cc(C(F)(F)F)ccc2s1	-1.3%	-3.7%	/	-9.5%
53	Cc1onc(-c2ccccc2)c1C(=O)N1CCCCCC1	1.2%	0.5%	/	16.8%
54	COc1ccc(C/C(C)=N/NC(=O)c2cccnc2)cc1	-0.6%	-5.6%	-0.3	7.4%
55	CCCn1c(N)c(N(CCOC)C(=O)COC(=O)c2ccccc2NCCO)c(=O)[nH]c1=O	-1.9%	/	/	4.8%
56	CC(NC(=O)c1ccco1)C(=O)OCC(=O)N1CCCCCC1 (stereo not given)	-3.2%	/	/	9.9%
57	CCOC(=O)C1CCCN(c2c(NCCCN(CC)c3ccccc3)c(=O)c2=O)C1 (stereo not given)	-0.2%	2.0%	-6.1	0.8%
58	Cn1cc(S(=O)(=O)N2CCc3ccccc32)cc1C(=O)NC(C)(C)C	-1.5%	20.5%	/	7.4%
59	O=c1[nH]c2nc(Cl)nc(Cl)c2[nH]1	-0.2%	/	/	9.0%
60	C[C@H](NC(=O)c1nc[nH]c1C(=O)N[C@@H](C)c1ccccc1)c1ccccc1	-0.1%	/	/	11.1%
61	COc1ccc(CC(=O)Nc2c(C(=O)N3CCN(c4ncccn4)CC3)oc3ccccc23)cc1	0.2%	0.8%	/	5.9%
62	CCOC(=O)C1CCCN(c2c(NCCCN(C)Cc3ccccc3)c(=O)c2=O)C1 (stereo not given)	-3.2%	-5.4%	-6.4	13.0%
63	COc1cccc(NC(=O)c2ccccc2N2C(=O)C3C4C=CC(C4)C3C2=O)c1 (stereo not given)	-1.3%	-19.6%	/	12.5%
64	CS(=O)(=O)N1CCN(C(=O)c2cc(-c3ccccc3)nc3ccccc23)CC1	-4.6%	-1.4%	-4.2	-9.5%
65	O=C(OCCCN1CCCCC1)c1ccc(O)cc1	3.8%	-9.8%	5.5	0.9%
66	CCOc1ncccc1C(=O)OCC(=O)Nc1cc(C)ccc1C	0.8%	-3.3%	3.2	0.1%
67	O=C(c1cc(COc2ccc3ncccc3c2)on1)N1CCCCCC1	-2.2%	-1.7%	6.6	-4.9%
68	O=C(NNC(=S)NC(=O)c1cccnc1)c1ccc(Cl)cc1	3.6%	-10.5%	2.3	9.4%
69	Cc1nn(C)c(N)c1C(O)(c1nccn1C)C(F)(F)F (stereo not given)	0.2%	-5.5%	6.7	7.9%
70	CCCC(C(=O)NC1CCCC1)N(CC1CCCO1)C(=O)c1snc(C(N)=O)c1N (stereo not given)	-0.7%	-5.4%	9.0	6.4%
71	O=C1CC2(CCN(C(=O)c3ccccc3[N+](=O)[O-])CC2)Oc2ccccc21	-4.0%	/	/	-11.6%
72	COc1ccc(CCC(=O)OCC(=O)c2c(N)n(CC(C)C)c(=O)n(C)c2=O)cc1	1.0%	4.7%	/	-6.3%
73	O=C(Nc1sccc1C(=O)N1CCOCC1)c1cccnc1	2.6%	-6.8%	-4.9	-0.8%
74	COc1ccc(CCN(Cc2ccccn2)C(=S)Nc2ccccc2Cl)cc1OC	-6.6%	2.7%	-1.2	1.8%
75	CCCc1c(C)[nH]c2ccc(NC(C)=O)cc2c1=O	1.2%	-0.6%	-21.7	0.5%
76	Cc1ccc2[nH]c(=O)cc(C(=O)OCC(=O)c3ccccc3)c2c1	?	-14.5%	-0.8	-9.7%
77	O=C(NCc1ccccc1Cl)C1CCN(S(=O)(=O)c2cccs2)CC1	-2.8%	0.4%	/	3.7%
78	O=C(CN(C(=O)CSc1nc2ccccc2o1)c1ccccc1F)NC1CCCCC1	2.4%	-11.2%	5.2	0.0%
79	Cc1cc(N(CC(=O)NC(C)C)S(C)(=O)=O)ccc1Br	-0.1%	-3.7%	-4.3	2.5%
80	COCCN1C(=O)C(O)=C(C(C)=O)C1c1ccc(F)cc1 (stereo not given)	-2.0%	0.6%	2.6	-0.5%
81	COc1ccc(-c2nnc3n(CCc4ccccc4)c(=O)c4ccccc4n23)c(OC)c1	3.3%	-8.2%	5.1	22.1%
82	CCCN1C2CCCC1CC(NC(=O)c1ccccc1OCC)C2 (stereo not given)	8.1%	0.4%	-2.5	1.5%
83	O=C(Nc1nncs1)C12CC3CC(CC(C3)C1)C2	4.6%	-9.1%	/	2.6%
84	COc1cc(C(=O)OC(C)C(=O)NC2CCCCC2C)c([N+](=O)[O-])cc1OC (stereo not given)	0.0%	/	/	-2.1%
85	O=C(CCn1nc(-c2ccccc2)c2ccccc2c1=O)NCC1CCCO1 (stereo not given)	2.2%	-9.6%	-10.0	6.4%
